Arbovirus inh – blocks arbovirus infection. arbovirus infection cell-based antiviral screen. inhibition, % at 10 µM. 200,000 compounds, 0.37% hits;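 active = inhibition from about 30%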;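 note: bluetongue infection of BSR cells; cell survival read as ATP light after 72 h; 0% = infected wells without compound and 100% = uninfected wells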
YopH PTP inh – inhibitors of Yersinia enterocolitica YopH tyrosine phosphatase. inhibition, %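 (about 10 µM by stock and volumes)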. fluorescence Ex485/Em525. 140,000 compounds, 0.16% hits;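 active = inhibition of 50% or more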;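 note: controls were vehicle for no effect and minimum signal wells for full effect; inactives centre near -20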
RecA splice inh – inhibitors of M. tuberculosis RecA intein splicing; 290,000 compounds, 0.75% hits; AID 2221; inhibition, %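 (about 9 µM by stock and volumes)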; P9WHJ3; cell-free RecA intein splicing, fluorescence; in the data active = inhibition above about 30%; inconclusive = no clear call, values can overlap the other calls;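 note: 0% = vehicle wells and 100% = reference inhibitor control wells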
Target sequence (P9WHJ3 whole entry, looked up, canonical isoform): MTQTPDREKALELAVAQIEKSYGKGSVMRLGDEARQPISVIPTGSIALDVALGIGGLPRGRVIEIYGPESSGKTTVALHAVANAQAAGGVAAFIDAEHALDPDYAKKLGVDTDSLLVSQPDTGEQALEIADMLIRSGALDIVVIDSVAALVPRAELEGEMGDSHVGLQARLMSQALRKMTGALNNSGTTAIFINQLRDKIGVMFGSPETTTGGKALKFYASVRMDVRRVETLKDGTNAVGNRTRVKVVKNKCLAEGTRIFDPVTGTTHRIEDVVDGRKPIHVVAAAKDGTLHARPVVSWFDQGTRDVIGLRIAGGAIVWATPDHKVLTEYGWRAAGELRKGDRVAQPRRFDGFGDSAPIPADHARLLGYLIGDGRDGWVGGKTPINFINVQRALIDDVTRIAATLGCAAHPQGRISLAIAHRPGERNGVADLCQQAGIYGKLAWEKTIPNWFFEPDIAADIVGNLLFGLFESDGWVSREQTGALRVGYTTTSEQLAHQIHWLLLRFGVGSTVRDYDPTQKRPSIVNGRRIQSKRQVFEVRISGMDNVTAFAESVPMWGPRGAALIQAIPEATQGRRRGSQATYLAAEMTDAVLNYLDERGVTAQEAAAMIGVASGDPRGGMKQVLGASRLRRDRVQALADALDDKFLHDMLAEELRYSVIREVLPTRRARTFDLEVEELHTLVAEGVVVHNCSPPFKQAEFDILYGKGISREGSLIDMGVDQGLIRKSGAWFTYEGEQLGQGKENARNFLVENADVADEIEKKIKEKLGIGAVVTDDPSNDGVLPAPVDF
Mtb growth – M. tuberculosis H37Rv growth inhibitors, H37Rv strain (AID 1626); M. tuberculosis H37Rv growth inhibition; higher % means a stronger effect; inhibition, % at 10 µM, or IC50 in µM where a hit was titrated; 220,000 compounds, 0.95% hits;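 active = confirmed in a dose series; inconclusive = inhibition above 80% but not taken into the dose series; inactive = below 80% or under 30% at every dose of the series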;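 note: bacteria incubated seven days before Alamar blue readout; 0% = bacteria only wells and 100% = bacteria with antibiotic wells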
Mtb bLac sens – beta-lactam sensitization of Mtb H37Rv. 330,000 compounds, 0.27% hits. inhibition, % at 25 µM. M. tuberculosis H37Rv growth with meropenem, percent inhibition; hits of this screen are not shown here;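 active = about 74% or more and at least 40 points above the plate without the antibiotic, then above 30% in a dose series; inconclusive = first-round hits that could not be retested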;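 note: growth measured after seven days incubation then overnight dye step; 0% = bacteria only wells and 100% = bacteria with antibiotic; twin plates without the antibiotic show which effects depend on it; some results filed as inactive read as strong as hits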
Arbovirus inh repeat – further read-out of Arbovirus inh, marked with its call; inhibition, %; measured here: 10K subset replicate screen; many hits read low in the repeat;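 first of two repeat runs on a subset; 0% = infected and 100% = uninfected wells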
The depositor's hits bear a star; ? = inconclusive; · = no result given.

SMILES	Arbovirus inh	YopH PTP inh	RecA splice inh	Mtb growth	Mtb bLac sens	others
COc1ccc(OC)c(NC(=S)NCc2ccco2)c1	·	-11	0.2	-4%	-4
Cc1cc(/C=N/Nc2nc(N3CCOCC3)nc(N3CCOCC3)n2)c(C)n1-c1ccccc1	16	·	-4.8	6%	-6
Cc1ccc(Cn2c(=O)n(-c3ccccc3)c(=O)c3ccc(C(=O)NCc4ccco4)cc32)cc1	2	-26	-0.2	·	-1
Cc1ccc(CN(C#N)c2nc(C)cc(C)n2)cc1	-9	2	4.3	12%	1
c1cc(CSc2nnc(-c3ccc4c(c3)OCO4)o2)ccn1	17	-43	·	-1%	2
Cc1cccc(N2C(=S)N=C(Nc3c(C)cccc3C)C23CCOC(C)(C)C3)c1 (configuration not stated)	11	-10	-1.1	0%	0
C=CCOc1nc(-c2ccccc2Cl)nc2ccccc12	·	·	12	1%	3
COc1ccc(C(=O)N[C@H]2COC(C)(C)O[C@H]2c2ccccc2)cc1	-1	-25	0.6	4%	0
COc1ccc(-c2nnc(SCC(=O)NCCC(C)C)nc2-c2ccc(OC)c(OC)c2)cc1OC	·	·	2.6	·	5
CCN(C(=O)COc1ncnc2ccc(Br)cc12)C1CCS(=O)(=O)C1 (configuration not stated)	-2	-15	0.8	-2%	5
CNc1ccc(Br)cc(C(=O)/C=C/c2cc(OC)ccc2OC)c1=O	-36	8	-1.8	8%	3
N#Cc1nc(COc2ccc(F)cc2)oc1NCCN1CCOCC1	1	4	0.3	3%	0
COc1ccc(S(=O)(=O)N2CCN(C(=O)c3ccco3)CC2)c(C)c1C	·	·	0.0	·	0
CN1CCN(C(=O)C2=C[C@@H](c3coc4ccccc4c3=O)C[C@@H](OCCCCO)O2)CC1	3	·	0.7	-9%	-13
Cc1ccc(NS(=O)(=O)c2ccc(-c3csc(C)n3)s2)c(C)c1	·	·	·	-13%	-8
O=C(Nc1ccccc1)C1CC(O)CN1S(=O)(=O)c1ccc([N+](=O)[O-])cc1 (configuration not stated)	·	·	0.7	-1%	-4
CC(=O)Nc1nnc(SCC(=O)NC2CCCC2)s1	·	·	-0.1	·	-5
COC(=O)c1sc(SC)nc1N	·	·	0.3	5%	-6
Cc1cccc(NC(=S)NCC(C)CSc2ccc(Cl)cc2)c1 (configuration not stated)	-23	·	24	10%	-6
Cc1ccc2nc(/C(C#N)=C/c3ccc(-c4cccc([N+](=O)[O-])c4)o3)[nH]c2c1	-4	-27	·	2%	-4
NS(=O)(=O)c1ccc(Nc2nc(-c3ccc4ccccc4c3)cs2)cc1	5	5	-0.7	3%	6
Cc1ccc(N(C(=O)Cn2nnc(-c3ccccc3)n2)C(C(=O)NC2CCCCC2)c2ccccn2)cc1C (configuration not stated)	-9	-17	0.5	3%	7
N#C/C(=C/c1cccc([N+](=O)[O-])c1)c1nnc2n1CCCCC2	10	-6	6.3	16%	74
Cc1cc(NC(=O)CSc2nnc(C3COc4ccccc4O3)n2C)no1 (configuration not stated)	16	·	1.4	7%	-8
Cc1cc(C)nc(N2CCCC(C(=O)NC(C)CCc3ccco3)C2)n1 (configuration not stated)	6	-26	2.2	7%	3

Continued, overlapping the part above by 2 compounds.
SMILES	Arbovirus inh	YopH PTP inh	RecA splice inh	Mtb growth	Mtb bLac sens	others
Cc1cc(NC(=O)CSc2nnc(C3COc4ccccc4O3)n2C)no1 (configuration not stated)	16	·	1.4	7%	-8
Cc1cc(C)nc(N2CCCC(C(=O)NC(C)CCc3ccco3)C2)n1 (configuration not stated)	6	-26	2.2	7%	3
CCOC(CCNC(=O)c1cn(CCOC)c(=O)c2c1c1ccccc1n2C)OCC	·	·	0.0	·	-1
CC(C)Nc1nc(NC(C)C)nc(N(C#N)CCOc2ccc(Cl)cc2Cl)n1	-21	-17	-1.9	18%	17
O=C(c1ccncc1)N(c1ccc2oc3c(c2c1)CCCC3)S(=O)(=O)c1ccc(F)cc1	-32	-27	51*	2%	-4
O=C(CNC(=O)c1ccccc1F)N/N=C/c1cc(Br)ccc1OCc1ccccc1	-8	-30	7.2	5%	11
C/C(=N\NC(=O)c1ccc(CN2CCc3ccccc3C2)cc1)c1ccccc1O	-23	·	-2.1	6%	0
Cc1oc(CC(C)C)cc1C(=O)Nc1cccc2ccccc12	-14	-4	9.8	-9%	-6
O=C(CCCCn1c(=O)c2ccccc2n(Cc2ccccc2F)c1=O)NC1CCN(Cc2ccccc2)CC1	3	·	0.5	7%	89
COc1ccc(C(=O)NNC(=O)CSc2nnc(-c3cccnc3)n2C)cc1	0	·	-3.9	-2%	-3
Cc1cccc(NC(=O)CSc2nnc(-c3ccco3)o2)c1	-1	-27	0.0	-4%	-21
CCOC(=O)c1cnc2c(OC)cccc2c1Nc1ccc2c(c1)OCCO2	-5	-5	3.9	8%	15
Cc1c2n(c3ccccc13)CCC2=O	·	·	-0.6	·	3
O=C1CC(N2CCN(c3ccccn3)CC2)C(=O)N1c1ccc(Cl)cc1 (configuration not stated)	0	·	-1.5	4%	3
COc1cc(CN(C(=S)NCC(=O)O)C2CCCC2)cc(OC)c1OC	8	·	-3.3	-5%	-8
CC(=O)Nc1ccc2oc(C)nc2c1	6	·	7.2	4%	4
COc1ccc(/C=C(/NC(=O)c2ccco2)C(=O)N2CCCCCC2)cc1OC	·	·	-0.9	·	-6
CCC(=O)N1CCN(CCN=CC2=C(O)CC(C)(C)CC2=O)CC1	3	-19	4.4	-10%	-1
O=C(CC1C(=O)NCCN1CC1CCCCC1)NCc1cccc(F)c1F (configuration not stated)	2	·	2.9	-9%	-5
CC[n+]1cc(C)ccc1/C=C/c1ccc(N(C)C)cc1	·	·	0.6	·	-1
COc1ccc(-c2nc(-c3cccnc3)no2)cc1	·	·	3.2	7%	-3
CCOC(=O)c1cc(C)n(-c2c(C)n(C)n(-c3ccccc3)c2=O)c1C	-5	-21	-0.4	-10%	-17
CCOc1cc(CNn2cn[nH]c2=S)cc(Cl)c1OCc1ccccc1F	-4	-11	6.2	14%	3
Cc1ccc(C)c(NC(=O)COC(=O)Cn2c(C)csc2=O)c1	·	·	2.8	·	-6
COc1ccc(Cl)cc1C(=O)C1CCCN(Cc2cnc(C)s2)C1 (configuration not stated)	-1	·	5.7	-6%	0
Cc1ccc(C(=O)Nc2cccc(C(=O)O)c2)cc1S(=O)(=O)N1CCOCC1	2	-25	-1.3	-18%	-3
Brc1ccc(-c2nnc(-c3ccccc3Br)o2)cc1	2	-43	4.4	1%	1	Arbovirus inh repeat=2

Of the compounds above, these have an NH in an aromatic ring.
SMILES	Arbovirus inh	YopH PTP inh	RecA splice inh	Mtb growth	Mtb bLac sens	others
Cc1ccc2nc(/C(C#N)=C/c3ccc(-c4cccc([N+](=O)[O-])c4)o3)[nH]c2c1	-4	-27	·	2%	-4
CCOc1cc(CNn2cn[nH]c2=S)cc(Cl)c1OCc1ccccc1F	-4	-11	6.2	14%	3

Later entries
SMILES	Arbovirus inh	YopH PTP inh	RecA splice inh	Mtb growth	Mtb bLac sens	others
Cc1ccc(NC(=O)c2ccc(CSc3ccccn3)cc2)cc1	-19	-17	1.2	14%	97
COc1cc(/C=C/C(=O)O)cc(S(=O)(=O)NC2CCCC2)c1OC	·	·	0.7	-4%	5
CCOC(=O)C1=C(C)N(C)C2(C)CC1c1ccccc1O2 (configuration not stated)	5	-17	3.9	1%	-1
Cc1ccc(CN(C(=O)c2sc3ccccc3c2Cl)C2CCS(=O)(=O)C2)cc1 (configuration not stated)	-2	38	5.9	-7%	0
O=C(CSc1nccc(=O)[nH]1)Nc1cc(C(F)(F)F)ccc1N1CCOCC1	·	·	-0.4	·	0
Cc1cc(=O)c2ccc(C(F)(F)F)cc2[nH]1	·	·	-1.6	-10%	-12
CC(C)(C)OC(=O)NCCCC[C@@H](C(=O)N1CCN(C(=O)OC(C)(C)C)CC1)n1cc(C(CO)NC(=O)OC(C)(C)C)nn1 (some centres not stated)	5	·	-3.0	-15%	-10
COc1ccc(N2CCN(C(=O)CCN3C(=S)NC(C)(C)CC3C)CC2)cc1 (configuration not stated)	8	·	-5.5	-6%	-21
Cc1ccc(C)c(S(=O)(=O)N2CCN(C(=O)c3cccn3C)CC2)c1	·	·	-1.0	·	0
Cc1cc(C(=O)N2CCCC(Nc3ccc(F)cc3)C2)c(C)o1 (configuration not stated)	·	·	-0.8	·	1
COc1ccc(C(=O)COC(=O)CNC(=O)C2CCCCC2)c(OC)c1	14	-27	-4.3	-3%	6
COc1ccc(S(=O)(=O)N(CC(C)C)CC(C)C)c2cccnc12	-1	-6	2.3	-1%	-1
COc1ccc(C(C)=O)cc1CSc1nnc(Nc2ccc(C)cc2)s1	10	-3	-3.9	9%	6
CC(OC(=O)Cc1cccc(C(F)(F)F)c1)C(=O)Nc1ccc(Cl)cn1 (configuration not stated)	·	·	0.0	·	-10
Cc1cccc(N2CC(C(=O)Nc3nc4ccc(S(C)(=O)=O)cc4s3)CC2=O)c1C (configuration not stated)	·	·	-4.0	·	4
O=C(OCC(=O)N1CCCC1)c1ccccc1OCc1ccccc1	7	-2	0.8	-1%	-13
Cc1cccc(NC(=S)N/N=C/c2c[nH]c3ccccc23)c1	-34	-24	11	?	42
N#C/C(=C\C1CC=CCC1)c1nc2ccccc2[nH]1 (configuration not stated)	17	-33	6.8	-4%	14
CCC(=O)n1nc(-c2cccnc2)nc1NCc1cccs1	1	·	8.2	5%	4
CCN(CC)S(=O)(=O)c1cccc(C(=O)NC2=NCCS2)c1	·	·	-4.4	·	0
CC1(C)CC(=O)C2=C(C1)NC(SCC(=O)Nc1ccccc1)=C(C#N)C2c1ccco1 (configuration not stated)	-15	-47	11	·	18
CCOc1ccc(C2=CS/C(=C(\C#N)c3nnc4n3CCCCC4)N2CC)cc1	-2	6	·	4%	3
COc1ccc(C2SCC(=O)Nc3c2c(=O)[nH]n3C2CCCCCC2)cc1 (configuration not stated)	1	-47	-0.4	-1%	4
C(=N\Nc1nnnn1-c1ccccc1)/c1ccncc1	2	-46	-0.9	-4%	-2
Cc1cccc(N2C(=O)C(Cl)=C(Nc3c(C)n(C)n(-c4ccccc4)c3=O)C2=O)c1C	4	-13	-1.5	-10%	0
(next part)
SMILES	Arbovirus inh	YopH PTP inh	RecA splice inh	Mtb growth	Mtb bLac sens	others
COc1ccc(N2C(=O)CC(Nc3ccc(C(=O)O)cc3)C2=O)cc1OC (configuration not stated)	5	·	-3.0	-3%	0
O=C(Nc1ccccc1Cl)C1CCCN(c2ncnc3c2nc2n3CCCCC2)C1 (configuration not stated)	·	·	3.2	·	13
COc1ccc(NC(=O)c2ccccc2NC(=O)CSc2ccc(Cl)cc2)cc1	-18	-25	1.9	-7%	7
CCCCC(=O)Nc1ncc(S(=O)(=O)c2ccc([N+](=O)[O-])cc2)s1	·	·	-1.1	·	-5
COc1ccc(NC(=O)c2ccccc2NC(=O)COc2ccccc2)cc1	-8	-20	-2.6	-4%	4
O=C(NCCc1ccc(F)cc1)c1ccc2c(=O)n3c(nc2c1)CCC3	·	·	-2.1	·	-18
N#CCCOC1(C#CCN2CCCC2)CCCCC1	·	·	-4.4	·	-2
Cc1ccc2c(COC(=O)c3ccc(C)c(C)c3)cc(=O)oc2c1	·	·	-0.2	·	-14
Cc1cccc(N(Cc2nnc3n2CCCCC3)C(=O)Nc2ccccc2)c1	9	-40	0.9	-5%	4
O=C(NCC(c1cccs1)N1CCOCC1)c1ccco1 (configuration not stated)	-7	-6	0.1	-10%	2
CN(C)c1ccc(CNC(=O)c2cc(S(=O)(=O)N3CCOCC3)cn2C)cc1	·	·	-3.4	·	-10
NC(=O)OCCCc1ccccc1	·	·	-2.1	-4%	-6
COc1ccc(NC(=O)Nc2ccncc2)c(OC)c1	6	·	-1.2	-7%	-4
COc1ccc(OCC(=O)N/N=C/C=C/c2ccccc2)cc1	-13	-10	0.6	7%	4
COc1ccccc1C(=O)NCC(=O)OCc1ccc(Br)cc1	5	-34	4.1	21%	3
COc1ccc(S(=O)(=O)NCCc2ccco2)cc1OC	·	·	1.1	·	-2
O=C(Cn1nnc2ccccc2c1=O)NC1CCCc2ccccc21 (configuration not stated)	-8	15	5.7	-4%	-3
C=CCN(c1ccccc1)S(=O)(=O)c1cccc(C(=O)O)c1	-3	-22	-1.4	-13%	-8
CNC(=O)NC(=O)COC(=O)c1cccc(S(=O)(=O)N2CC3(C)CC2CC(C)(C)C3)c1 (configuration not stated)	·	·	-1.0	·	-4
O=C(COC(=O)C1CC1)Nc1ccc(OC(F)F)cc1	2	-7	-1.3	6%	4

3 entries from above, sorted by length of the SMILES, low to high.
SMILES	Arbovirus inh	YopH PTP inh	RecA splice inh	Mtb growth	Mtb bLac sens	others
N#C/C(=C\C1CC=CCC1)c1nc2ccccc2[nH]1 (configuration not stated)	17	-33	6.8	-4%	14
COc1cc(/C=C/C(=O)O)cc(S(=O)(=O)NC2CCCC2)c1OC	·	·	0.7	-4%	5
O=C1CC(N2CCN(c3ccccn3)CC2)C(=O)N1c1ccc(Cl)cc1 (configuration not stated)	0	·	-1.5	4%	3

High-throughput results from PubChem.

An excerpt; rates above refer to the full screens.
